Vaccinia Venus – vaccinia inhibition (Venus reporter). AID 720580. 330,000 tested, 0.46% active. Potency, µM (highest dose often 36.5 µM), for the others: top-dose activity change, negative = inhibition, actives largely listed as inhibitors. Vaccinia virus Venus reporter expression, fluorescence; active means well fitted inhibition curve with a large enough effect; inconclusive means small, poorly fitted or top-dose-only effect; inactive means no such curve, though single readings can be large or run the other way; tested in A549 cells; note: nearly all actives have a fitted effect of over 30% in size; inactives centre near -10
Vaccinia mCherry – vaccinia inhibition (mCherry reporter). Vaccinia virus mCherry reporter infection, fluorescence; about a quarter of the inactives have no number. 310,000 tested, 0.63% active. Potency, µM (highest dose often 36.5 µM), for the others: top-dose activity change, negative = inhibition, hits mostly inhibitors; active = well fitted inhibition curve with a large enough effect; inconclusive = small, poorly fitted or top-dose-only effect; inactive = no such curve, though single readings can be large or run the other way; tested in A549 cells; note: nearly all actives have a fitted effect of over 35% in size; inactives centre near -10
Starred values were filed as active, the others as inactive; & = joins results of further samples; [ ] = dose if it differs, or a comment. % is set by controls: 0 for no effect and ±100 for the full control effect; potency is the fitted concentration of half-maximal effect.

Results for Cc1cccc(-n2c(SCC(=O)Nc3ccc4c(c3)OCO4)nnc2-c2ccoc2C)c1 ?
Vaccinia Venus: -5%; Vaccinia mCherry: inactive

What do the screens show for `CCC(C(=O)NCc1ccco1)N(C(=O)CNS(=O)(=O)c1ccccc1)C1CCCCC1` (stereo not given)?
Vaccinia Venus: -7%; Vaccinia mCherry: inconclusive

How did Cc1cccc(N2CCN(C(=O)c3cccc(S(=O)(=O)N4CCc5ccccc5C4)c3)CC2C)c1 (stereo not given) do in these assays?
Vaccinia Venus: inconclusive; Vaccinia mCherry: -9%

How did CCC1CCCCN1CCCNC(=O)CN1C(=O)c2cccnc2Oc2ccc(Cl)cc21 (stereo not given) do in these assays?
Vaccinia Venus: 4%[7.34 µM]; Vaccinia mCherry: 56%[activator][7.34 µM]

What do the screens show for `COc1ccc(C)cc1NC1(c2ccccc2)C(=O)c2ccccc2C1=O`?
Vaccinia Venus: -3%; Vaccinia mCherry: 3%

How did C=CCn1c(SCC(=O)c2cccs2)nnc1-c1cccc(OC)c1 do in these assays?
Vaccinia Venus: -9%; Vaccinia mCherry: -18%

How did CC(/C=C\c1cccnc1)=C/C(=O)O do in these assays?
Vaccinia Venus: -24%&-22%

What do the screens show for `CCCCn1c(N)c(N(CC(C)C)C(=O)C2CCN(S(=O)(=O)c3ccccc3)CC2)c(=O)[nH]c1=O`?
Vaccinia Venus: -7%; Vaccinia mCherry: -8%

What do the screens show for `Cc1nc([N+](=O)[O-])cn1CC(=O)c1ccc(F)cc1`?
Vaccinia Venus: 3%; Vaccinia mCherry: -8%

What do the screens show for `COc1ccc(OC)c(NC(=O)C2(C)CCN2Cc2cccc(OC)c2F)c1` (stereo not given)?
Vaccinia Venus: -3%; Vaccinia mCherry: inactive

Results for Cc1ccnc(NC(=O)CS(=O)(=O)Cc2ccccc2)c1 ?
Vaccinia Venus: -5%; Vaccinia mCherry: -2%

What do the screens show for `CCOC(=O)C1CCN(C(=O)CSc2nnc(-c3ccco3)n2-c2ccccc2)CC1`?
Vaccinia Venus: -1%

What do the screens show for `Cc1ccc(NC(=O)COC(=O)c2oc3ccccc3c2C)cc1S(=O)(=O)N1CCOCC1`?
Vaccinia Venus: -7%; Vaccinia mCherry: -12%

Results for COc1ccc(NC(=O)CN(C)C2CCCCC2)c([N+](=O)[O-])c1 ?
Vaccinia Venus: -8%; Vaccinia mCherry: inactive

What do the screens show for `CN(C)S(=O)(=O)c1ccc(N2CCCC2)c(C(=O)Nc2nc3ccc(F)cc3s2)c1`?
Vaccinia Venus: -1%; Vaccinia mCherry: -4%

Results for Cc1cc(=O)oc2c3c(cc(OCC(=O)NCc4cccnc4)c12)OC(C)(C)CC3 ?
Vaccinia Venus: -5%; Vaccinia mCherry: -1%

How did Cc1nnc(SCC(=O)c2cc(C)n(C3CC3)c2C)s1 do in these assays?
Vaccinia Venus: -13%

What do the screens show for `CN(Cc1cnn(C)c1)Cc1nc(COc2ccccc2)no1`?
Vaccinia Venus: -12%; Vaccinia mCherry: inactive

What do the screens show for `Cc1ccc2[nH]c(=O)c3cc(C(=O)N(C)c4ccc(Br)cc4)sc3c2c1`?
Vaccinia Venus: -9%; Vaccinia mCherry: -17%

What do the screens show for `CCCCNC(=O)N(CC)c1c(N)n(Cc2ccccc2)c(=O)[nH]c1=O`?
Vaccinia Venus: -1%; Vaccinia mCherry: -1%

Random excerpt: 2 records from the list, in no set order.
How did CCC1CCCCN1CCCNC(=O)CN1C(=O)c2cccnc2Oc2ccc(Cl)cc21 (stereo not given) do in these assays?
Vaccinia Venus: 4%[7.34 µM]; Vaccinia mCherry: 56%[activator][7.34 µM]

What do the screens show for `CCCCNC(=O)N(CC)c1c(N)n(Cc2ccccc2)c(=O)[nH]c1=O`?
Vaccinia Venus: -1%; Vaccinia mCherry: -1%

(further entries)
Results for COc1ccccc1Cc1nnc(NC(=O)C2CCN(C(=O)c3ccco3)CC2)s1 ?
Vaccinia Venus: -6%; Vaccinia mCherry: 15%

What do the screens show for `O=C(N/C(=C\c1ccccc1)C(=O)N1CCCCCC1)c1ccccc1`?
Vaccinia Venus: -5%; Vaccinia mCherry: 2%

Results for COc1ccc(/C=C2/N=C3CCCCCN3C2=O)cc1OC ?
Vaccinia Venus: -15%; Vaccinia mCherry: -15%

How did CCCCNc1ccc(/C=C2\C=Cc3ccccc32)cc1 do in these assays?
Vaccinia Venus: 6%; Vaccinia mCherry: 18%

Results for COc1ccc(NC(=O)C(C)N2C(=O)C3CC=C(Cl)CC3C2=O)cc1 (stereo not given) ?
Vaccinia Venus: -3%; Vaccinia mCherry: inactive

What do the screens show for `CCN1C(=O)[C@H]2[C@@H](c3ccc(-c4cccc(Cl)c4)c(OC)c3)N[C@@](CC(C)C)(C(=O)OC)[C@H]2C1=O`?
Vaccinia Venus: -27%; Vaccinia mCherry: -9%

How did CCNC(=S)N/N=C/c1cc(C)ccc1C do in these assays?
Vaccinia Venus: -13%; Vaccinia mCherry: -15%

What do the screens show for `COc1cc(/C=N/N=C2/NC(=O)C(Cc3ccc(F)cc3)S2)ccc1O` (stereo not given)?
Vaccinia Venus: -23%; Vaccinia mCherry: inconclusive

How did CC1CCN(C(=O)c2nc[nH]c2C(=O)N2CCC(C)CC2)CC1 do in these assays?
Vaccinia Venus: -4%; Vaccinia mCherry: -12%

How did O=C(Nc1ccc(C(=O)O)cc1)/C(=C\c1ccc2c(c1)OCO2)NC(=O)c1ccc(Br)cc1 do in these assays?
Vaccinia Venus: -11%; Vaccinia mCherry: inactive

What do the screens show for `O=C(CN1C(=O)c2ccccc2S1(=O)=O)Nc1cccc(S(=O)(=O)N2CCOCC2)c1`?
Vaccinia Venus: -10%; Vaccinia mCherry: -21%

What do the screens show for `CCc1nc2ccc(C(=O)N3CCCCC3)cn2c1N(C)CCCc1ccccc1`?
Vaccinia Venus: -12%; Vaccinia mCherry: -3%

How did COC(=O)c1sc(-c2ccccc2)cc1NC(=O)Nc1ccc(Cl)cc1 do in these assays?
Vaccinia Venus: -13%; Vaccinia mCherry: -10%

Results for CCc1ccccc1OCC(=O)Nc1ccc(N2CCCC2)cc1C ?
Vaccinia Venus: 10%; Vaccinia mCherry: inconclusive

How did CCOc1ccc(NC(=O)CSc2nc3ccccc3nc2N2CCCC2)cc1 do in these assays?
Vaccinia Venus: -4%; Vaccinia mCherry: inactive

What do the screens show for `O=C(Nc1ccc(F)cc1)C(c1ccccc1)N1CCN(S(=O)(=O)c2ccc3ccccc3c2)CC1` (stereo not given)?
Vaccinia Venus: -24%; Vaccinia mCherry: inactive

Results for O=C(CCN1C(=O)C2C3CCC(C3)C2C1=O)OCC(=O)c1cccc([N+](=O)[O-])c1 (stereo not given) ?
Vaccinia Venus: -1%; Vaccinia mCherry: inactive

What do the screens show for `COc1ccc(-c2noc(-c3cc(C)cc(C)c3)n2)cc1OC`?
Vaccinia Venus: -4%; Vaccinia mCherry: inactive

What do the screens show for `COc1ccc(N=C2SC(C(=O)Nc3ccc4c(c3)OCO4)CC(=O)N2C)cc1` (stereo not given)?
Vaccinia Venus: -5%&-12%; Vaccinia mCherry: inconclusive

What do the screens show for `O=C(CCSCc1ccc(Cl)cc1)N1CCN(c2ccccc2F)CC1`?
Vaccinia Venus: -5%; Vaccinia mCherry: -10%

What do the screens show for `CC(=O)Nc1ccc(SC[C@H](Cc2ccccc2)N2CCN(CC(C)C)CCC2=O)cc1`?
Vaccinia Venus: -22%; Vaccinia mCherry: -6%

What do the screens show for `COc1ccc(CC(=O)NNC(=O)c2ccco2)cc1`?
Vaccinia Venus: 0%; Vaccinia mCherry: 0%

Results for CC(C)(C)OC(=O)NCCCCCNC(=O)c1nc[nH]c1C(=O)N1CCN(c2ccccc2)CC1 ?
Vaccinia Venus: -18%; Vaccinia mCherry: inactive

What do the screens show for `CCCC(=O)Nc1cc(Cl)ccc1N1CCN(C(=O)CC)CC1`?
Vaccinia Venus: -14%; Vaccinia mCherry: inactive

Results for COC(=O)c1c(C)[nH]c(C(=O)OCC(=O)c2c(N)n(CC(C)C)c(=O)n(C)c2=O)c1C ?
Vaccinia Venus: -9%; Vaccinia mCherry: inactive

How did CSc1ccccc1OCc1cc(C(=O)N2CCN(Cc3nccn3C)CC2)no1 do in these assays?
Vaccinia Venus: -14%; Vaccinia mCherry: -27%

What do the screens show for `O=C(Nc1nnc(COc2ccc(Cl)cc2)s1)c1ccco1`?
Vaccinia Venus: -2%; Vaccinia mCherry: inactive

Results for Cc1cccn2cc(CNC(=O)C3CCCCC3)nc12 ?
Vaccinia Venus: -6%

How did O=C(CN1CCN(c2ccccn2)CC1)Nc1cc(F)ccc1F do in these assays?
Vaccinia Venus: -5%; Vaccinia mCherry: inconclusive

How did N=c1ncn(Cc2ccccc2)c2nc(SCCOc3ccccc3)[nH]c12 do in these assays?
Vaccinia Venus: 5%; Vaccinia mCherry: inactive

How did CCn1c2ccccc2c2cc(NC(=O)COC(=O)c3cc(S(N)(=O)=O)c(Cl)cc3Cl)ccc21 do in these assays?
Vaccinia Venus: inconclusive; Vaccinia mCherry: 11µM*

What do the screens show for `COc1ccc(S(=O)(=O)NC(=O)C2(C)CCN2C(=O)Cc2cccc3ccccc23)cc1` (stereo not given)?
Vaccinia Venus: 0%; Vaccinia mCherry: 32%[activator]

Results for CN(C)S(=O)(=O)c1cccc(NC(=O)c2cccc(N3C(=O)CCC3=O)c2)c1 ?
Vaccinia Venus: -7%; Vaccinia mCherry: -4%

Results for CCOc1ccc(OCC(=O)c2c(O)c3ccccc3oc2=O)cc1 ?
Vaccinia Venus: 4%

What do the screens show for `Cc1ccc(/C=C2\SC(=S)N(CCC(=O)NNS(=O)(=O)c3ccc(C)cc3)C2=O)cc1`?
Vaccinia Venus: -10%; Vaccinia mCherry: -2%

What do the screens show for `Cc1sc(NC(=O)CN(CCc2ccccc2)C(=O)C2CC2)c(C(N)=O)c1C`?
Vaccinia Venus: -11%; Vaccinia mCherry: inactive

Results for COCCn1c(-c2ccccc2)nc(=S)c2c1CC(C)(C)OC2 ?
Vaccinia Venus: -8%

How did CCOC(=O)c1ccc(NC(=O)Nc2nncs2)cc1 do in these assays?
Vaccinia Venus: inconclusive; Vaccinia mCherry: inconclusive

Results for CC(C)Sc1nnc2c3ccccc3n(C)c2n1 ?
Vaccinia Venus: -18%; Vaccinia mCherry: inactive

Results for CN=C(NC#N)NCCSCc1nc[nH]c1C ?
Vaccinia Venus: -20%&-10%; Vaccinia mCherry: -1%&-3%

Results for O=C(c1ccco1)N1CCN(Cc2nc3cc(Cl)ccc3c(=O)[nH]2)CC1 ?
Vaccinia Venus: 0%; Vaccinia mCherry: inactive

How did O=C(NCCN1CCN(c2cccc(Cl)c2)CC1)C1CCCN(S(=O)(=O)c2cnc[nH]2)C1 (stereo not given) do in these assays?
Vaccinia Venus: -5%; Vaccinia mCherry: inactive

What do the screens show for `CCCn1c(SCc2nc3sc(C)c(C)c3c(=O)[nH]2)nc2ccccc2c1=O`?
Vaccinia Venus: -12%; Vaccinia mCherry: -16%

How did COc1ccc(-n2c(Cc3cccc([N+](=O)[O-])c3)nc3ccccc3c2=O)cc1 do in these assays?
Vaccinia Venus: -15%; Vaccinia mCherry: -10%

What do the screens show for `Cc1ccc(CNC(=O)c2ccc3c(=O)n4c(-c5ccc(C)cc5)csc4nc3c2)cc1`?
Vaccinia Venus: -29%; Vaccinia mCherry: inactive

How did CC(=O)c1cccc(NC(=O)c2ccc(S(=O)(=O)N3CCCCC3)cc2)c1 do in these assays?
Vaccinia Venus: -19%; Vaccinia mCherry: -4%

How did Brc1ccc(C2=Nn3c(nnc3-c3n[nH]c4c3CCC4)SC2)cc1 do in these assays?
Vaccinia Venus: inconclusive; Vaccinia mCherry: -26%

What do the screens show for `C=CCOc1ccc(/C=C/C(=O)OCC(=O)NCc2cccc(OC)c2)cc1`?
Vaccinia Venus: -19%; Vaccinia mCherry: -20%

How did O=C(O)c1ccccc1N/N=C/C1=C(N2CCOCC2)C(=C\c2ccccc2)/CC1 do in these assays?
Vaccinia Venus: 5%; Vaccinia mCherry: inconclusive

What do the screens show for `O=C(N1CCN(Cc2ccc3c(c2)OCO3)CC1)C12CC3CC(CC(C3)C1)C2`?
Vaccinia Venus: -8%; Vaccinia mCherry: -16%

What do the screens show for `COCCCNC(=O)c1cnc2c(-c3ccc(F)cc3)c(C)nn2c1C`?
Vaccinia Venus: -8%; Vaccinia mCherry: -12%

How did CCOC(=O)N1CCC(N2CCN(Cc3ccccc3)C(CCO)C2)CC1 (stereo not given) do in these assays?
Vaccinia Venus: 0%; Vaccinia mCherry: -2%

Results for O=C(CCN1CCN(c2ccccc2)CC1)Nc1ccccc1F ?
Vaccinia Venus: -12%; Vaccinia mCherry: inactive

Results for O=[N+]([O-])c1cccc(-c2ccc(C(=S)N3CCN(c4ccccc4)CC3)o2)c1 ?
Vaccinia Venus: -2%; Vaccinia mCherry: -26%

What do the screens show for `Cc1ccc(NC(=O)C2C3CCCC2C3c2ccccc2)cc1C` (stereo not given)?
Vaccinia Venus: -10%; Vaccinia mCherry: -13%

What do the screens show for `O=C(COC(=O)c1cc(=O)[nH]c2ccccc12)NC1CCCCC1`?
Vaccinia Venus: -3%; Vaccinia mCherry: -9%

What do the screens show for `CCC1CCCCN1CC(O)COCc1cccc(OC)c1` (stereo not given)?
Vaccinia Venus: 0%; Vaccinia mCherry: -22%

3 entries from above, sorted by formula weight, low to high:
Results for O=C(CCN1CCN(c2ccccc2)CC1)Nc1ccccc1F ?
Vaccinia Venus: -12%; Vaccinia mCherry: inactive

What do the screens show for `O=C(COC(=O)c1cc(=O)[nH]c2ccccc12)NC1CCCCC1`?
Vaccinia Venus: -3%; Vaccinia mCherry: -9%

Results for O=[N+]([O-])c1cccc(-c2ccc(C(=S)N3CCN(c4ccccc4)CC3)o2)c1 ?
Vaccinia Venus: -2%; Vaccinia mCherry: -26%
